Bioassay records: PubChem, Southern Research Institute
CFTR F508del – compounds raising F508del-CFTR protein level – cell-based, HeLa F508del-CFTR, immunofluorescence, viability, primary screen (AID 1224863) | 10,000 compounds, 0.1% hits | calls, or highest fold increase where a dose series was run | HeLa F508del-CFTR, immunofluorescence total CFTR, 24 h; by the record results were divided by relative cell number; some inactives read as strong as hits; in the data nearly all actives have a first-pass fold increase above 1.5; a few of its hits are not listed in these tables;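 note: total CFTR protein by anti-CFTR immunofluorescence in fixed cells; first pass at 25 µM or 10 µg/mL by library and series up to twice that; 1 = untreated cells; first-pass hits also needed half or more of the cells alive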
CFTR F508del fold 25 µM – further read-out of CFTR F508del, marked with its call; fold increase; measured here: primary screen single dose 25 uM; library dosed in µM
CFTR F508del fold 10 ug/mL – second read-out of CFTR F508del, no call of its own (marks repeat the call); fold increase; measured here: primary screen 10 ug/mL
CFTR F508del viability 25 µM – further read-out of CFTR F508del, marked with its call; viability, %; measured here: primary viability 25 uM; library dosed in µM;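 0% = killed and 100% = untreated cells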
CFTR F508del viability 10 ug/mL – second read-out of CFTR F508del, no call of its own (marks repeat the call); viability, %; measured here: primary viability 10 ug/mL;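 0% = killed and 100% = untreated cells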
* marks the source's active call; other numbers are inactive results; i = inactive; nt = not tested or not shown; + = active, no number; & = joins results of further samples; ! = repeats disagree. An excerpt, so the mix of outcomes need not match the whole.

Start of the listing, in advance, 5 compounds:
SMILES | CFTR F508del | CFTR F508del fold 10 ug/mL | CFTR F508del viability 10 ug/mL | others
CC(=O)S[C@@H]1CC2=CC(=O)CC[C@]2(C)[C@H]2CC[C@@]3(C)[C@@H](CC[C@@]34CCC(=O)O4)[C@H]12 | 5.8 | nt | nt | CFTR F508del fold 25 µM=1.9;CFTR F508del viability 25 µM=84
Cc1noc(Cn2nnc(-c3ccc(F)cc3)n2)n1 | i | 0.89 | 78
Cc1onc(-c2ccccc2)c1-c1nnc(CN2CCN(S(=O)(=O)N3CCCCCC3)CC2)o1 | i | 0.78 | 77
N#CCc1cnn(-c2ccccc2)n1 | i | 0.95 | 97
OCc1ccccc1 | i | nt | nt | CFTR F508del fold 25 µM=1;CFTR F508del viability 25 µM=94

The list itself, from the first entry:
SMILES | CFTR F508del | CFTR F508del fold 10 ug/mL | CFTR F508del viability 10 ug/mL | others
CC(=O)S[C@@H]1CC2=CC(=O)CC[C@]2(C)[C@H]2CC[C@@]3(C)[C@@H](CC[C@@]34CCC(=O)O4)[C@H]12 | 5.8 | nt | nt | CFTR F508del fold 25 µM=1.9;CFTR F508del viability 25 µM=84
Cc1noc(Cn2nnc(-c3ccc(F)cc3)n2)n1 | i | 0.89 | 78
Cc1onc(-c2ccccc2)c1-c1nnc(CN2CCN(S(=O)(=O)N3CCCCCC3)CC2)o1 | i | 0.78 | 77
N#CCc1cnn(-c2ccccc2)n1 | i | 0.95 | 97
OCc1ccccc1 | i | nt | nt | CFTR F508del fold 25 µM=1;CFTR F508del viability 25 µM=94
C=Cc1c(C)c2cc3[nH]c(cc4nc(cc5nc(cc1[nH]2)C(C)=C5CCC(=O)O)C(CCC(=O)O)=C4C)c(C)c3C=C | i | nt | nt | CFTR F508del fold 25 µM=1.1;CFTR F508del viability 25 µM=82
S=c1n(CN(C2CCCC2)C2CC2)nc(N2CCOCC2)n1-c1ccccc1 | i | 1 | 102
CCCNC(=O)NS(=O)(=O)c1ccc(Cl)cc1 | i | nt | nt | CFTR F508del fold 25 µM=1;CFTR F508del viability 25 µM=99
c1ccc(C(OCCSc2nnc(C3CC3)n2C2CC2)c2ccccc2)cc1 | i | 0.95 | 89
CN(Cc1ccc2c(c1)OCCO2)S(=O)(=O)c1cc(F)cc(F)c1 | i | 1 | 92
CN1C(=O)C(=Cc2ccc(F)c(F)c2)C(=O)N(C)C1=O | i | 1 | 102
Cc1nc2ccc(NC(C)c3nnc(-c4ccccc4)o3)cc2s1 (stereo not drawn) | i | 0.93 | 86
CN1CCN(c2nc(-c3ccc(F)cc3F)cs2)CC1 | i | 0.95 | 95
O=C(COC(=O)c1ccc(-c2ccccc2)cc1)c1ccc2c(c1)OCCO2 | i | 0.92 | 86
CCCCCOC(=O)Nc1nc(=O)n(C2O[C@H](C)[C@@H](O)[C@H]2O)cc1F (stereo partly drawn) | i | nt | nt | CFTR F508del fold 25 µM=0.92;CFTR F508del viability 25 µM=92
C=CCN(CC=C)S(=O)(=O)c1ccc2c(c1)CCC(=O)N2 | i | 0.93 | 102
CC1(C)S[C@@H]2[C@H](NC(=O)[C@@H](N)c3ccc(O)cc3)C(=O)N2[C@H]1C(=O)O | i | nt | nt | CFTR F508del fold 25 µM=1.1;CFTR F508del viability 25 µM=105
CN(c1ccc(S(C)(=O)=O)cc1[N+](=O)[O-])C1CCCCC1 | i | 0.94 | 92
Cn1c(=O)c2ccccc2n2c(CSc3nnnn3C(C)(C)C)nnc12 | i | 1.1 | 96
O=[N+]([O-])c1cc2c(c(CSc3nnnn3-c3ccc(Cl)cc3)c1)OCOC2 | i | 1 | 91
O=C(O)/C=C/c1ccc(Cn2ccnc2)cc1 | +! | nt | nt | CFTR F508del fold 25 µM=3.2*!;CFTR F508del viability 25 µM=73*!
CC(C)C(C)(C#N)NC(=O)Cn1nc(-c2cccs2)oc1=O (stereo not drawn) | i | 1.1 | 89
Cc1cc(C(=O)COC(=O)C2(C)CC2(Cl)Cl)c(C)n1-c1ccc2c(c1)OCO2 (stereo not drawn) | i | 1 | 76
O=C(CCCN1CC=C(n2c(=O)[nH]c3ccccc32)CC1)c1ccc(F)cc1 | i | nt | nt | CFTR F508del fold 25 µM=1.1;CFTR F508del viability 25 µM=102
CC(C(O)C1CCC(O)CC1)N1CCC(CC2CCCCC2)CC1 (stereo not drawn) | i | nt | nt | CFTR F508del fold 25 µM=1.1;CFTR F508del viability 25 µM=95

Three structures already listed, ordered by length of the SMILES, falling:
SMILES | CFTR F508del | CFTR F508del fold 10 ug/mL | CFTR F508del viability 10 ug/mL | others
Cc1onc(-c2ccccc2)c1-c1nnc(CN2CCN(S(=O)(=O)N3CCCCCC3)CC2)o1 | i | 0.78 | 77
Cc1cc(C(=O)COC(=O)C2(C)CC2(Cl)Cl)c(C)n1-c1ccc2c(c1)OCO2 (stereo not drawn) | i | 1 | 76
C=CCN(CC=C)S(=O)(=O)c1ccc2c(c1)CCC(=O)N2 | i | 0.93 | 102

Next part:
SMILES | CFTR F508del | CFTR F508del fold 10 ug/mL | CFTR F508del viability 10 ug/mL | others
COC(=O)C1(NS(=O)(=O)c2cc(OC)ccc2OC)CCCCC1 | i | 1.1 | 95
CCN(CC)S(=O)(=O)N1CCN(S(=O)(=O)c2c(C)c(C)c(C)c(C)c2C)CC1 | i | 1.1 | 86
CC1CCC(C(C)C)C(NS(=O)(=O)c2cc(C(N)=O)n(C)c2)C1 (stereo not drawn) | i | 1.1 | 95
CN(C)S(=O)(=O)c1ccc(C(=O)NCCN2CCS(=O)(=O)CC2)o1 | i | 1.1 | 104
CCCCCCCCCCCCCCCC(=O)NCCO | i | nt | nt | CFTR F508del fold 25 µM=0.98;CFTR F508del viability 25 µM=92
CN1CCN(S(=O)(=O)c2ccc3c(c2)CCC3)C(c2ccccc2)C1 (stereo not drawn) | i | 1.1 | 79
CC1(C(=O)NCc2nnc3ccccn23)CC1(Cl)Cl (stereo not drawn) | i | 1 | 99
COc1ccccc1-c1nc(CSc2nc3ccccc3s2)cs1 | i | 1 | 92
C=C(C)CN1C(=O)NC(CC)(c2ccccc2)C1=O (stereo not drawn) | i | 0.95 | 85
CCc1oc2ccccc2c1C(=O)c1cc(Br)c(O)c(Br)c1 | i | nt | nt | CFTR F508del fold 25 µM=0.66;CFTR F508del viability 25 µM=91
Cc1cc(C(=O)CSc2nnc(SCC(=O)c3cc(C)n(CC4CCCO4)c3C)s2)c(C)n1CC1CCCO1 (stereo not drawn) | i | 1.2 | 110
Cn1ccnc1SCCNS(=O)(=O)c1ccc2c(c1)CCCC2 | i | 0.96 | 94
CC(C)CNC(=O)C1CC2CCC1C2 (stereo not drawn) | i | 1.1 | 101
CCOC(=O)[C@H](CCc1ccccc1)N[C@H]1CCc2ccccc2N(CC(=O)O)C1=O | i | nt | nt | CFTR F508del fold 25 µM=1.3&1.2;CFTR F508del viability 25 µM=91&89
CC1(NC(=O)c2cnccn2)CCS(=O)(=O)C1 (stereo not drawn) | i | 1.1 | 102
O=[N+]([O-])c1ccnn1CN1CCN(S(=O)(=O)c2cccc(Br)c2)CC1 | i | 1.1 | 98
CCOC(=O)N1CCC(NS(=O)(=O)N2CCCCCC2)CC1 | i | 1.1 | 102
O=C(O)c1cc(N=Nc2ccc(O)c(C(=O)O)c2)ccc1O | i | nt | nt | CFTR F508del fold 25 µM=0.95;CFTR F508del viability 25 µM=108
Cc1sc2nc(CSc3ccc(Br)cc3)nc(NC3CCS(=O)(=O)C3)c2c1C (stereo not drawn) | i | 1.1 | 84
O=C1/C(=C\C=C\c2ccco2)CCC/C1=C\C=C\c1ccco1 | i | 1.3 | 110
CN(CCO)c1nc(CN2CCCCC2)nc2sc3c(c12)CCC3 | i | 0.99 | 104
NC(=O)Cn1c(C2CC2)n[nH]c1=S | i | 1.1 | 92
COc1ccc(OCCSc2nnc(-c3ccc(F)cc3)n2C)cc1 | i | 1.2 | 112
CN1CCN(c2nc3ccccn3c(=O)c2[N+](=O)[O-])CC1 | i | 1 | 102
CCONC(=O)c1sc2nc(-c3ccco3)nc(C)c2c1C | i | 1.1 | 101
Carrying on:
SMILES | CFTR F508del | CFTR F508del fold 10 ug/mL | CFTR F508del viability 10 ug/mL | others
C=C(Cl)Cn1c(=O)c(C#N)c2n(c1=O)CCC2 | i | 0.91 | 84
O=C(NCCCN1CCc2ccccc21)C12CC3CC(CC(C3)C1)C2 | i | 0.86 | 86
CC1CC(OC(=O)c2ccc3c(c2)C(=O)c2ccccc2-3)C(=O)O1 (stereo not drawn) | i | 1.1 | 103
CCCCc1nnc(NC(=O)C2CCCN(C(=O)OCC)C2)s1 (stereo not drawn) | i | 1 | 104
O=C(O)CCCN1C(=O)c2cccc3cccc(c23)C1=O | i | 1.2 | 95
CC1CCc2ccccc2N1S(=O)(=O)c1cccc(F)c1 (stereo not drawn) | i | 0.99 | 91
CCC(C)NC(=O)CN1CCN(S(=O)(=O)N2CC(C)OC(C)C2)CC1 (stereo not drawn) | i | 1.2 | 82
CCCCNC(=O)N1CCN(S(=O)(=O)c2ccc(Cl)s2)CC1 | i | 1 | 99
CC1CN(Cn2c(=S)n(C)c3ccccc32)CCO1 (stereo not drawn) | i | 1.1 | 90
CCC(C)(C)c1ccc(CC(C)CN2C[C@@H](C)O[C@@H](C)C2)cc1 (stereo partly drawn) | i | nt | nt | CFTR F508del fold 25 µM=1.1&1.1&1.1;CFTR F508del viability 25 µM=76&80&83
Cc1nc2nc(C(F)(F)F)nn2c(C)c1CCC(=O)N1CCCCCC1 | i | 1 | 86
Cc1c(N)cc(C#N)cc1F | i | 1.1 | 102
O=C(NCC12CC3CC(CC(C3)C1)C2)c1cc(Cl)sc1Cl | i | 1.1 | 77
CC(C)c1nccn1CCN | i | 1.1 | 94
CC1CC(C)CN(C(=O)c2cnn(C)c2-n2cccc2)C1 (stereo not drawn) | i | 1.1 | 96
CC(C)(C)C(=O)Nc1cccc(N2CCNC2=O)c1 | i | 1 | 99
Cc1csc(SCc2noc(-c3ccc(Cl)cc3)n2)n1 | i | 0.95 | 102
Cc1nc2ccc(NC(=O)N3CCN(S(=O)(=O)N(C)C)CC3)cc2s1 | i | 1.1 | 93
Cn1nnnc1SCc1ncc(-c2ccc(F)cc2)o1 | i | 1 | 94
Cc1nc(=S)c(C#N)c(C)[nH]1 | i | 1.1 | 101
COc1ccc(CN(CN2C(=O)NC3(CCCC3)C2=O)CC(F)(F)F)cc1 | i | 1.1 | 99
O=C(COc1ccc2ccc(=O)oc2c1)N1CCCc2ccccc21 | i | 1 | 96
O=S(=O)(Nc1cccc2ccccc12)c1ccc(Cl)s1 | i | 0.93 | 75
O=[N+]([O-])c1cccc2ccc(/C=C/c3cccc(Br)c3)nc12 | i | 1.1 | 77
Cn1cc([N+](=O)[O-])cc1C(=O)NCC(=O)N1CCCC1 | i | 0.88 | 92

Taken from the entries so far for reference:
SMILES | CFTR F508del | CFTR F508del fold 10 ug/mL | CFTR F508del viability 10 ug/mL | others
C=C(Cl)Cn1c(=O)c(C#N)c2n(c1=O)CCC2 | i | 0.91 | 84
O=C(NCCCN1CCc2ccccc21)C12CC3CC(CC(C3)C1)C2 | i | 0.86 | 86

Next structures:
SMILES | CFTR F508del | CFTR F508del fold 10 ug/mL | CFTR F508del viability 10 ug/mL | others
O=S(=O)(c1cccc(CSc2ccccc2Br)c1)N1CCOCC1 | i | 0.99 | 92
CS(=O)(=O)CCSc1nnc(N2CCOCC2)n1-c1cccc(F)c1 | i | 1 | 89
CON(C)C(=O)CC12CC3CC(CC(O)(C3)C1)C2 | i | 1.1 | 104
Fc1cccc(-c2nnn(CCc3ccncc3)n2)c1 | i | 1 | 99
c1ccc(-n2nnnc2CSc2nnc(N3CCOCC3)n2-c2ccccc2)cc1 | i | 1 | 102
CC(=O)OC/C=C(C)/C=C/C=C(C)/C=C/C1=C(C)CCCC1(C)C | i | nt | nt | CFTR F508del fold 25 µM=1.1&1.2;CFTR F508del viability 25 µM=83&105
O=S(=O)(Nc1ccc(S(=O)(=O)C(F)F)cc1)c1cc(F)ccc1F | i | 0.94 | 100
Cc1cc(C)n2c(=S)n(CN3CCC(c4nc5ccccc5s4)CC3)nc2n1 | i | 1.1 | 95
O=C(c1cccs1)N1CCC(C(=O)N2CCCC2c2cccs2)CC1 (stereo not drawn) | i | 1.1 | 97
CSCCC(NC(=O)c1ccco1)C(=O)NC(C)c1cc(C)sc1C (stereo not drawn) | i | 0.88 | 93
COc1ccc(-c2c3c(=O)n(C)c(=O)n(C)c3nc3c2c(=O)n(C)c(=O)n3C)cc1 | i | 0.97 | 102
Cc1ccc(S(=O)(=O)c2ccc(CN3C(=O)NC4(CCSC4)C3=O)cc2)cc1 (stereo not drawn) | i | 0.99 | 98
CC(N)CN1CCCC1=O (stereo not drawn) | i | 1 | 82
CC(C)[C@@H]1CC[C@@H](C)C[C@H]1O | i | nt | nt | CFTR F508del fold 25 µM=1;CFTR F508del viability 25 µM=84
